P. yoelii liver – Plasmodium liver-stage growth inhibition, dose response, imaging, Malaria Box, P. yoelii, HepG2-A16-CD81EGFP (AID 602156); calls after a first round at 10 µM; hits with a dose series show IC50 in µM; P. yoelii liver stage in HepG2-A16-CD81EGFP, imaging; first-round cut-off not given here; hit rate 4.8% among 5,700; in the data active = a potency from the dose series;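 note: infected cells exposed to compound for 48 hours before fixation; stained parasite area by imaging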
The depositor's hits bear a star; i = inactive.

entry	Molecule	P. yoelii liver
1	COCOc1ccc(-c2nc(-c3ccncc3)cnc2N)cc1	i
2	CCCc1c(CC)c(=N)c2ccccc2n1C	i
3	C=CCSc1oc(-c2ccco2)nc1[P+](c1ccccc1)(c1ccccc1)c1ccccc1	i
4	Cc1ccc(O)c(NC(=O)c2cnn3c(C(F)(F)F)cc(-c4ccccc4)nc23)c1	i
5	NC(=O)CSc1nnc2ccc(-c3ccc4c(c3)OCO4)nn12	i
6	COc1ccc(C2C(C(=O)Nc3cc(Cl)c(OC)cc3OC)c3ccccc3C(=O)N2C)cc1 (stereo not drawn)	i
7	COc1cc(NC(=O)/C=C/c2ccccc2Cl)cc(OC)c1OC	i
8	COc1cnc(-c2ccccn2)nc1NC(C)C	i
9	COc1ccc(C2C(C(=O)OC3CCCCC3)=C(C)Nc3nnnn32)cc1 (stereo not drawn)	i
10	CCCOc1ncnc2c1sc1nc3c(cc12)COC(C)(C)C3	i
11	CCOc1cc(C(Nc2cc(C)ccn2)c2ccc3cccnc3c2O)ccc1OCc1ccccc1 (stereo not drawn)	i
12	CC[n+]1c(/C=C/N(C)c2ccccc2)n(-c2ccccc2)c2ccc(-c3nc4ccccc4s3)cc21	0.014µM*
13	CC(c1nc2ccccc2c(=O)n1-c1ccc(Br)cc1)N1CCN(S(=O)(=O)c2ccc3ccccc3c2)C(C)C1 (stereo not drawn)	i
14	COc1ccc(C(=O)N2C(C(=O)Nc3ccccc3F)CSC2c2ccc(C(C)(C)C)cc2)cc1 (stereo not drawn)	i
15	Cc1ccc(NC(=O)C2CSC(c3cccc(F)c3)N2C(=O)c2ccc(C(C)(C)C)cc2)cc1C (stereo not drawn)	i
16	O=c1c2c([nH]c3ccccc13)CCCCCC2	0.73µM*
17	N#Cc1cn(-c2ccc(Cl)cc2)c(=O)n(Cc2c(Cl)cccc2Cl)c1=O	i
18	COc1cc(C(=O)NCCc2ccccn2)ccc1OC1CCN(CC(c2ccccc2)c2ccccc2)CC1	1.3µM*
19	CCCCCCc1ccc(/C(C=[N+](C)C)=C\N(C)C)cc1	i
20	CCCC(=O)NC(C(=O)N1CCN(C(c2ccccc2)c2ccccc2)CC1)C(C)C (stereo not drawn)	i
21	CCN(CC)CCNc1nc2cc(OC)c(OC)cc2c2nc(-c3ccccc3)nn12	i
22	Cc1cccc(OC(C)C(=O)N2CCc3ccccc32)c1 (stereo not drawn)	i
23	CSCCN1CCc2ccc3[nH]cc(-c4cccc(Cl)c4)c3c2C1	i
24	CN1CCCC(CNC(=O)c2cnn(-c3ncc4c(n3)-c3ccccc3SC4)c2C2CC2)C1 (stereo not drawn)	i
25	CCN1C(=Cc2cccc[n+]2C)C=Cc2ccc(C)cc21	i
26	CC(=O)N(C1=C(N2CCOCC2)C(=O)c2ccccc2C1=O)c1ccc(F)c(F)c1	i
27	COC(=O)C1=C(C)NC2=C(C(=O)CC(c3ccc(OC)c(OC)c3)C2)C1c1ccc(Cl)cc1Cl (stereo not drawn)	i
28	OC(CNC1CCN(Cc2ccccc2)CC1)COc1ccc(Br)cc1 (stereo not drawn)	i
29	Cc1c(Cl)cccc1NC(=S)N1CCCN(c2ccc(C(F)(F)F)cc2[N+](=O)[O-])CC1	i
30	COc1cc(C=NNC(=O)Cc2nnc(N)s2)ccc1O	i
31	Fc1ccc(Nc2nc(NCC3CCCO3)c3ccccc3n2)cc1 (stereo not drawn)	i
32	O=C(Nc1ccc(Cl)c(C(F)(F)F)c1)NC1CC2CCC(C1)N2C1CCCC1 (stereo not drawn)	i
33	CC(C)C1Oc2cc3oc(=O)ccc3cc2C1=NO (stereo not drawn)	i
34	COCCN(C(C)C(=O)NC(CN1CCCC1)c1ccccc1)S(=O)(=O)c1c(C)noc1C (stereo not drawn)	i
35	Cc1cc(Nc2ccc(OCc3ccccc3)cc2)nc2cc(O)ccc12	i
36	Cc1cc(C)c(CSc2ncnc3nc[nH]c23)c(C)c1	i
37	COC1=CC(=O)c2c(ccc3cc(O)ccc23)C1=O	i
38	COc1cc(OC)c(Br)c(-n2c(C(C)N(CCC(C)C)C(=O)c3ccccc3C)nc3ccccc3c2=O)c1 (stereo not drawn)	i
39	CC[n+]1c(C)cc2c(sc3ccccc32)c1C	i
40	CCOC(=O)c1c[nH]c2c(C)c3[nH]c(C)c(C)c3cc2c1=O	i
41	C=C(C)[C@@H]1CC=C(CN2C[C@H](NC(=O)c3ccc(OC)cc3OC)C[C@H]2C(=O)OC)CC1	i
42	Cc1cc(C)c2c(c1)OC(N)(C(Cl)(Cl)Cl)CC2=O (stereo not drawn)	i
43	CCN(CC)CCNc1ccnc2ccc([N+](=O)[O-])cc12	i
44	Cc1ccc(Nc2nc(NCc3ccco3)c3ccccc3n2)cc1	i
45	COc1cc(NC(=O)Cn2c3ccccc3c(=O)c3ccccc32)cc(OC)c1OC	i
46	CCCN1CCC(N2CCCC(c3[nH]ncc3-c3cccc(C(F)(F)F)c3)C2)CC1 (stereo not drawn)	i
47	CCc1cccc(NC(=O)N2CCN(C(=O)c3nc(-c4ccccc4)nc(C)c3C(=O)OC(C)C)CC2C)c1 (stereo not drawn)	i
48	CC[N+]1(CCOc2ccc(C34CC5CC(CC(C5)C3)C4)cc2)CCCCC1	i
49	COC(=O)C1=C(C)NC2=C(C(=O)CC(c3ccc(OC)c(OC)c3)C2)C1c1ccccc1C (stereo not drawn)	i
50	CN1CCN(c2nc(NN=Cc3ccc(O)cc3)nc(Nc3ccc([N+](=O)[O-])cc3)n2)CC1	i
51	COc1ccccc1-n1c(=O)c2c3c(sc2n2c(C)nnc12)CCC3	i
52	CC(=O)NC(c1ccc(N(C)C)cc1)c1cc(Cl)c2cccnc2c1O (stereo not drawn)	i
53	CCOc1ccc(-c2nc(NC(=O)Cc3cccc(OC)c3)sc2C)cc1	i
54	Cc1nc(NN=Cc2ccccc2O)cc(N2CCCCC2)n1	i
55	CN(CCCNc1ccnc2cc(Cl)ccc12)S(=O)(=O)c1ccc2ccccc2c1	i
56	CCCCNC(=O)c1ccc2c(c1)N=C(c1cccnc1)N(CCN1CCOCC1)C2	i
57	CCN1C(=Cc2sc3ccccc3[n+]2CCO)Sc2ccccc21	i
58	O=C(c1ccc2c(c1)OCO2)N1CCOC(c2ccc(Cl)cc2)C1 (stereo not drawn)	i
59	CC1(C)CC(NC(=O)Cc2ccc(Cl)cc2)CC(C)(C)N1	i
60	C(=C\c1ccccc1)/CNC1CCN(Cc2ccccc2)CC1	i

Additional structures follow.
entry	Molecule	P. yoelii liver
61	Cc1ccn2c(NC(C)(C)CC(C)(C)C)c(-c3ccccc3OC(=O)/C=C/c3ccc([N+](=O)[O-])cc3)nc2c1	i
62	CCN1C(=Cc2ccc3cc(OC)ccc3[n+]2CC)Sc2ccc(NC(C)=O)cc21	i
63	CCC(C)(C)c1ccc(OCCCC[n+]2cccc(C)c2C)c(C(C)(C)CC)c1	0.045µM*
64	Cc1cc(C)cc(-n2c(C)cc(C=C3SC(=Nc4ccc(Cl)cc4)NC3=O)c2C)c1	i
65	CCOC(=O)c1ccc(NC(=O)c2ccc(S(=O)(=O)N3CC(C)CC(C)C3)cc2)cc1 (stereo not drawn)	i
66	CC1CC(C)CN(CCCNc2ccc(C(=O)Nc3ccc(C(F)(F)F)cc3)cc2[N+](=O)[O-])C1 (stereo not drawn)	i
67	CCCCCCN(C(=O)c1ccc(C(C)(C)C)cc1)C(CC)c1nc2cc(Cl)ccc2c(=O)n1CC (stereo not drawn)	i
68	Cc1cc(NC(c2cccc(Br)c2)c2ccc3cccnc3c2O)no1 (stereo not drawn)	0.15µM*
69	CC(C)NCC(O)Cn1c2ccc(Cl)cc2c2cc(Cl)ccc21 (stereo not drawn)	3µM*
70	CCCCCCCn1c2c(c(=N)c3ccccc31)CCC2	0.076µM*
71	CC1=NOC(=O)C1=Cc1cccs1	i
72	CCCC[n+]1c(-c2ccccc2)cc(-c2ccccc2)cc1-c1ccccc1	i
73	FC(F)(F)c1cccc(-c2cc(NCCCn3ccnc3)nc(-c3ccncc3)n2)c1	i
74	Cc1ccc2c(c1)N(C)/C(=C/c1cccc[n+]1C)S2	i
75	CCC(Sc1nc(C)cc(-c2ccccc2)n1)C(=O)Nc1cccc2ccccc12 (stereo not drawn)	i
76	CCC(C)NC(=O)c1c[nH]c2ccc(S(=O)(=O)N(C)c3cc(C)ccc3C)cc2c1=O (stereo not drawn)	i
77	Cc1ccc(-c2c3c4n(c(-c5ccc(Cl)cc5)cn4c2C(=O)Nc2ccccc2Cl)CCCC3)cc1	i
78	CN(c1ccc(Cl)cc1)S(=O)(=O)c1ccc2[nH]cc(C(=O)NCCC3=CCCCC3)c(=O)c2c1	i
79	COc1ccc(OC)c(-c2ccc(O)c(CN3CCCC(C)C3)c2)c1 (stereo not drawn)	i
80	COc1cccc(C2C(C(=O)Nc3ccc(C)cc3C)=C(C)Nc3c(C(=O)Nc4ccccc4)cnn32)c1 (stereo not drawn)	i

Of the compounds above, these have fluorine:
entry	Molecule	P. yoelii liver
4	Cc1ccc(O)c(NC(=O)c2cnn3c(C(F)(F)F)cc(-c4ccccc4)nc23)c1	i
14	COc1ccc(C(=O)N2C(C(=O)Nc3ccccc3F)CSC2c2ccc(C(C)(C)C)cc2)cc1 (stereo not drawn)	i
15	Cc1ccc(NC(=O)C2CSC(c3cccc(F)c3)N2C(=O)c2ccc(C(C)(C)C)cc2)cc1C (stereo not drawn)	i
26	CC(=O)N(C1=C(N2CCOCC2)C(=O)c2ccccc2C1=O)c1ccc(F)c(F)c1	i
29	Cc1c(Cl)cccc1NC(=S)N1CCCN(c2ccc(C(F)(F)F)cc2[N+](=O)[O-])CC1	i
31	Fc1ccc(Nc2nc(NCC3CCCO3)c3ccccc3n2)cc1 (stereo not drawn)	i
32	O=C(Nc1ccc(Cl)c(C(F)(F)F)c1)NC1CC2CCC(C1)N2C1CCCC1 (stereo not drawn)	i
46	CCCN1CCC(N2CCCC(c3[nH]ncc3-c3cccc(C(F)(F)F)c3)C2)CC1 (stereo not drawn)	i
66	CC1CC(C)CN(CCCNc2ccc(C(=O)Nc3ccc(C(F)(F)F)cc3)cc2[N+](=O)[O-])C1 (stereo not drawn)	i
73	FC(F)(F)c1cccc(-c2cc(NCCCn3ccnc3)nc(-c3ccncc3)n2)c1	i

The results go on:
entry	Molecule	P. yoelii liver
81	COc1cccc(OCC(=O)NN=C(C)CC(=O)NCc2ccco2)c1	i
82	CCN1C(=Cc2cccc[n+]2C)C=Cc2ccccc21	i
83	CCOC(=O)c1ccc(N2CCN(c3cc(C)ccc3C)CC2)c(NC(=O)Nc2ccc(Cl)cc2)c1	i
84	Oc1ccc(-c2ccccc2)cc1CNC1CCCCC1	i
85	COc1cccc(-c2cn3c(n2)sc2cc(C(=O)NC4CCN(Cc5ccccc5)CC4)ccc23)c1	i
86	CC(C)(C)NC(=O)C(c1cccs1)N(CCCN1CCOCC1)C(=O)c1ccc(-c2ccccc2)[nH]1 (stereo not drawn)	i
87	CCCCNC(=O)NC(Cc1c[nH]c2ccccc12)C(=O)NC1CCCCC1 (stereo not drawn)	i
88	CN(C)c1nnc(C(C#N)=Cc2cc(C(=O)c3cccc(Cl)c3)cn2C)o1	i
89	CCOc1ccc2c(c1)sc(=NC(=O)Nc1ccc(OC)cc1)n2C	i
90	Nc1cccc(C(=O)Nc2ccc(Oc3cccc(Oc4ccc(NC(=O)c5cccc(N)c5)cc4)c3)cc2)c1	1.8µM*
91	Cc1cccc(-c2ccc(NC(=O)C3CCN(Cc4cnc(C)nc4)CC3)cc2)c1	i
92	O=C(COc1cccc2ccccc12)NC1CCS(=O)(=O)C1 (stereo not drawn)	i
93	Cc1cc(N2CCN(C)CC2)nc2ccc(NC(=O)c3ccc(Br)o3)cc12	i
94	CCOC(=O)C1=C(O)C(=Cc2cc(C)n(-c3cccc(Br)c3)c2C)N=C1C	i
95	CC(C)(C)c1ccc(C(=O)NCCCCNc2ccnc3cc(Cl)ccc23)cc1	i
96	Cc1ccccc1Cn1c(N2CCC(C(=O)NCc3ccccn3)CC2)nc2ccccc21	i
97	O=C(Nc1ccc(-n2cccn2)cc1)C1CCN(CC=Cc2ccccc2)CC1	i
98	CN(CCCNc1ccnc2cc(Cl)ccc12)C(=O)c1ccc(Br)cc1	i
99	c1cc2cc3ccc(OCCN4CCCCC4)cc3nc2cc1OCCN1CCCCC1	i
100	CCCCCCCSc1c(O)c2ccc(Cl)cc2[nH]c1=O	i
101	CCN(CC)CCNc1nc(/C=C/c2ccc(Cl)cc2)nc2cc3ccccc3cc12	i
102	CCOC(=O)c1c[nH]c2cc(OCC3CC3)c(OCC3CC3)cc2c1=O	i
103	CCOc1ccc(C(=O)C[N+]2=C(C)c3ccc(C)n3CC2)cc1	i
104	C(=Nc1cnc2ccccc2c1)c1c2n(c3ccccc13)CCCN2	i
105	Cc1ccn2c(NC(C)(C)CC(C)(C)C)c(-c3ccccc3OC(=O)c3ccc(Cl)cc3Cl)nc2c1	i
106	CC(=O)N1c2ccccc2C(C)(c2ccc(Br)cc2)CC1(C)C (stereo not drawn)	i
107	COc1ccc(N=C(C)C2=C(O)c3ccccc3C2=O)c(OC)c1	i
108	CCS/C(Cl)=C(/NC(=O)c1ccccc1)[P+](c1ccccc1)(c1ccccc1)c1ccccc1	i
109	O=C(Nc1ccc(-c2nc3ccc(-c4nc5ccc(NC(=O)c6cccc7ccccc67)cc5[nH]4)cc3[nH]2)cc1)c1cccc2ccccc12	i
110	CC[n+]1cc(C)ccc1C=Cc1ccc(N(C)C)cc1	i
111	CCN1C(C(=O)c2ccccc2)=C(Nc2c(C)n(C)n(-c3ccccc3)c2=O)c2ccccc2S1(=O)=O	i
112	CCN1/C(=C/c2cccc[n+]2C)Sc2cc(NC(C)=O)ccc21	i
113	CNC(=O)c1ccc(NC(=O)Nc2ccc(C3=NCCCN3)cc2)cc1NC(=O)Nc1ccc(C2=NCCCN2)cc1	i
114	CC(C)(C)CC(=O)NCCCCNc1ccnc2cc(Cl)ccc12	i
115	CC(Sc1nnc2c3ccccc3n(Cc3ccccc3)c2n1)C(=O)N1CCN(C(=O)C(c2ccccc2)c2ccccc2)C(C)C1 (stereo not drawn)	i
116	c1cn2c(-c3ccc(N4CCOCC4)cc3)cnc2c(NCc2ccc3c(c2)OCO3)n1	i
117	COc1ccc(CN2C[C@H](Sc3nc4ccccc4[nH]3)C[C@H]2C(=O)NC2CC2)cc1C	i
118	CC(C)CN1C(=O)c2ccccc2C(C(=O)Nc2ccc(C(C)C)cc2)C1c1cccs1 (stereo not drawn)	i

The list is partial; rates above refer to the full screens.
